TRPML1 blocker = qHTS for Inhibitors of the Human Mucolipin Transient Receptor Potential 1 (TRPML1). TRPML1-inducible cells, Ca2+ dye fluorescence, FDSS; hits give low values; inhibition of EC80 agonist-evoked calcium signal. AID 624415, 2012. activity change, negative = inhibition, % (no concentration beside the values). 390,000 compounds, 0.02% hits. Mucolipin-1 (Homo sapiens), Q9GZU1; in the data active means activity change below about -50%; inconclusive means about -30% to -50%; inactive means above about -30%;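 further: stimulus is agonist 54-4 at its EC80 concentration; on the % scale 0 is the no-effect control and ±100 the full control effect; compound concentration not given in the record; the text of the record puts the active cut at -80%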
Target sequence (Q9GZU1 whole entry, looked up): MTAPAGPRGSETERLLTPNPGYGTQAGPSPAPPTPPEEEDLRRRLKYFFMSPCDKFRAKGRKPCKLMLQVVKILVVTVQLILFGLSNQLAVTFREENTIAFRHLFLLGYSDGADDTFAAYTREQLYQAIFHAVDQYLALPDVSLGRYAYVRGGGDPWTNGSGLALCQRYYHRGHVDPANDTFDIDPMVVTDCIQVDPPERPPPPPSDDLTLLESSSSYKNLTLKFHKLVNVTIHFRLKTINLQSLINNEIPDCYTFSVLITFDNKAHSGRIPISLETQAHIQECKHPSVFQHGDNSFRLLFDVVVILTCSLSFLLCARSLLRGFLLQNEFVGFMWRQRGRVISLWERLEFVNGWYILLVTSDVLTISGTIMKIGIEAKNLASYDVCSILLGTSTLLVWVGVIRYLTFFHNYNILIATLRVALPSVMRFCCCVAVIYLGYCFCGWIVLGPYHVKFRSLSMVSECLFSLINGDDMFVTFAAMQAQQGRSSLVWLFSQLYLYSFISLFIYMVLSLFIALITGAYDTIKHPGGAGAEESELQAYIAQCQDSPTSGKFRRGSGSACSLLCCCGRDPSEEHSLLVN
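Tet-induced TRPML1-DL cells loaded with Ca8 no-wash calcium dye were read kinetically on FDSS. Compound addition was followed by EC80 agonist 54-4 (4 uM final); inhibition was read over 110 s.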
Six1-Eya2 inh = qHTS Assay for Inhibitors of the Six1/Eya2 Interaction; AlphaScreen GST-Six1/His-Eya2 binding, biochemical; hits give low values; control for the full effect not named in the record; 360,000 compounds, 0.56% hits; AID 651725, 2012; Homeobox protein SIX1 (Homo sapiens) + Protein phosphatase EYA2 (Homo sapiens), …; activity change, % (no concentration beside the values); in the data active = activity change below about -65%; inconclusive = about -30% to -65%; inactive = above about -30%; further: on the % scale 0 is the no-effect control and ±100 the full control effect
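Six1/Eya2 binding was read as AlphaScreen signal after compounds were pinned into GST-Six1 plus His-tagged Eya2 (5X stock 250/500 nM) in pH 8.0 Tris/NaCl/TCEP buffer, beads added, then incubated 1 h, 37 C, dark.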
PINK1 expr mod = A Quantitative High throughput Screen to Identify Chemical Modulators of PINK1 Expression. 410,000 compounds, 0.2% hits. Potency, µM (doses to about 76.6 µM), for inactives: at the highest dose activation (PINK1 increase), actives largely listed as activators. PINK1 immunofluorescence, high-content cytometry, 24 h; active = well fitted activation curve with a large enough effect; inconclusive = small, poorly fitted or top-dose-only effect; inactive = flat fitted curve, though single readings scatter; cell line not stated here;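 further: potency means the concentration at half of the fitted maximal effect; % of control where 0% means no effect; nearly all actives have a fitted effect of over 65% in size; a mitochondrial uncoupler was the plate control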
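Decision-based qHTS: stable cells, 24 h exposure to five compound concentrations, CCCP as control. Fixed cells stained for PINK1 plus nuclear, mitochondrial and cell markers, cytometer read.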
D2 PAM = Beta-Arrestin HTS for Positive Allosteric Modulators of the Human D2 Dopamine Receptor: Potentiators | DiscoveRx D2 beta-arrestin cells, luminescence, 90 min; 100% = 57 uM dopamine signal | potentiation, % (test concentration not listed) | 360,000 compounds, 0.23% hits; active = potentiation of 50% or more; inconclusive = 30% to 50%; inactive = 30% or less;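 further: compound concentration not given in the record; tested on top of an EC20 dose of dopamine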
Target sequence (P14416 whole entry, looked up): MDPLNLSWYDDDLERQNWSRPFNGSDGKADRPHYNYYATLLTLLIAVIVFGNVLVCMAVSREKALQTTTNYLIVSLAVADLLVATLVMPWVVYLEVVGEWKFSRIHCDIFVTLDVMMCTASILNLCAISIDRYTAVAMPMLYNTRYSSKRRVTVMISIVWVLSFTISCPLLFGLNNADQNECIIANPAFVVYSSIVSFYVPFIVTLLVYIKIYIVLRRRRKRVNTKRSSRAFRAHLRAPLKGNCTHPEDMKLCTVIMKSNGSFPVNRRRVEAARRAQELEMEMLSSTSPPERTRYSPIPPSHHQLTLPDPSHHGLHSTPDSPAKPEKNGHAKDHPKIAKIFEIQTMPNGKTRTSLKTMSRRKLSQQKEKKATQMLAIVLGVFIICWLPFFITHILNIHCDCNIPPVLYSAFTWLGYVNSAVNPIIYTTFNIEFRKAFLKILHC
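D2 cells co-treated with compound plus 50 nM dopamine (EC20) for 90 min at 37 deg C to detect potentiation. Beta-arrestin recruitment was read as enzyme-fragment luminescence after 1 h at ambient temperature. Full response was set by 57 uM dopamine.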
D2 agonist = Beta-Arrestin HTS for Positive Allosteric Modulators of the Human D2 Dopamine Receptor: Agonists; D(2) dopamine receptor (Homo sapiens), P14416; DiscoveRx PathHunter D2 beta-arrestin, luminescence, 90 min; 100% = 57 uM dopamine signal; activation, % (concentration not given with the values); 360,000 compounds, 0.084% hits; in the data active = activation above about 40%; inconclusive = about 15% to 40%; inactive = below about 15%; further: the text of the record calls up to 30% inactive
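DiscoveRx PathHunter D2 beta-arrestin cells (2,100/well) attached overnight, then compound-stimulated 90 min at 37 C in HBSS/10 mM HEPES/0.1% Tween-20 buffer; beta-galactosidase complementation read by luminescence after 1 h at ambient temperature. Dopamine 57 uM final (EC100) as control.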
TRPML1 agonist = qHTS for Agonists of the Human Mucolipin Transient Receptor Potential 1 (TRPML1); activation, % (concentration not given with the values); Mucolipin-1 (Homo sapiens), Q9GZU1; AID 624414, 2012; 410,000 compounds, 0.12% hits; TRPML1-expressing cells, Ca2+ dye fluorescence, FDSS; host cell line not named in the record; reference of the full effect not given here; in the data active = activation above about 50%; inconclusive = about 30% to 50%; inactive = below about 30%; further: 0% is about no effect; the text of the record puts the active cut at 80%
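Agonist activity was taken from a 110 s kinetic Ca2+ dye read on the FDSS after pinning compounds onto TRPML1-DL cells. The cells were seeded at 1,500/well with Tet inducer, incubated about 16 h, then dye-loaded at room temperature.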
Starred values were filed as active, the others as inactive; u = inconclusive; x = not tested or not shown; & = joins results of further samples; [ ] = remark or other dose.

SMILES | TRPML1 blocker | Six1-Eya2 inh | PINK1 expr mod | D2 PAM | D2 agonist | TRPML1 agonist
COc1ccc(C2=Nn3c(nnc3-c3ccccc3OC)SC2)cc1OC | 25 | -29 | 4.0%&5.5% | 4 | 1.2 | 1.6&-0.1
COc1cc(/C=N/NC(=O)CNC(=O)/C=C/c2ccco2)cc(OC)c1OC | -8 | -13 | -2.5% | -12 | -5.9 | -0.6
CCOC(=O)c1c(NC(=O)C(C)N2CCN(C(=O)c3ccco3)CC2)sc2c1CCCC2 (stereo unspecified) | 12 | -17 | 12% | -24 | -2.7 | -0.6
CC(C)Cc1nn2c(=O)cc(COC(=O)c3ccc(NC(=O)CCc4ccccc4)cc3)nc2s1 | 14 | x | 0.2% | x | x | 0.4
COc1cccc(C(=O)NC(=S)Nc2cccnc2)c1 | -3 | 0 | 1.2% | -18 | -6.7 | 1.4
CCOc1ccccc1Nc1ccc2nonc2c1[N+](=O)[O-] | -12 | 2 | 0.6% | -3 | 7.8 | 0.8
CC(=O)Oc1ccccc1-n1c(C)nc(=O)c(-c2ccccc2)c1C | -11 | -6 | -0.7% | -6 | -3.2 | 0.0
Cc1ccsc1/C=N/n1c(-c2cccnc2)n[nH]c1=S | -11 | 0 | 12%[38.3 µM] | -15 | -4.3 | -0.8
O=c1c2nncn2c2cc(C(F)(F)F)ccc2n1CCNc1ncc(C(F)(F)F)cc1Cl | -3 | -2 | -0.6% | -2 | -5.4 | 0.9
Cc1ccc(C(=O)N(CCN2CCCCC2)CC2CCCN(C3CCCC3)C2)s1 (stereo unspecified) | 3 | -19 | 1.5% | -36 | -5.4 | -0.3
CCCn1c2ccccc2c2cnn(CC(=O)NCCc3ccccc3)c(=O)c21 | 9 | x | -0.8% | x | x | 0.0
Cc1csc(NC(=O)CCc2nc3ccccc3s2)n1 | -6 | -17 | -0.4% | -14 | 0.3 | -0.5
Cc1ccc(C)c(N2CCN(C(=O)c3ccc4[nH]c(C)c(C)c4c3)CC2)c1 | -15 | x | 3.8% | x | x | -0.2
CCN(CC(=O)Nc1ccc(NC(C)=O)cc1)C(=O)/C=C/c1ccc([N+](=O)[O-])cc1 | 15 | -1 | 1.2% | 14 | 5.6 | -0.7
CCNC(=S)N1CCn2cccc2C1c1ccc(F)cc1 (stereo unspecified) | -15 | -13 | 2.4% | 0 | -0.9 | 0.1
COc1ccc(NC(=O)CN(C)S(=O)(=O)c2cccc3cccnc23)cc1 | 0 | -11 | 1.4% | -9 | -5.4 | -0.5
CCc1ccc(N=CC2=C(O)CC(c3ccco3)CC2=O)cc1 (stereo unspecified) | 4 | -11 | -1.6% | -21 | -1.1 | 0.8
C=CCc1ccc(OCC(O)COc2ccc(CC=C)cc2OC)c(OC)c1 | 2 | -5 | 5.1% | -19 | -1.5 | -0.7
O=S(=O)(Nc1nc(-c2ccccc2)cs1)c1cc(Cl)ccc1Cl | 5 | -6 | -1.0% | -3 | 3.9 | -0.6
CCOC(=O)Cc1csc(NC(=O)CN2CCCCC2)n1 | -15 | 20 | -1.5% | -3 | 1.6 | -0.4
Cc1cc2cc(CN(CCCO)S(=O)(=O)c3cccc4nsnc34)c(=O)[nH]c2cc1C | -15 | -1 | 2.2%[38.3 µM] | -2 | -3.1 | 0.0
COCc1ccc(CN2CCC(CO)(CC3CCCCO3)CC2)o1 (stereo unspecified) | 9 | -7 | -2.0% | -8 | -0.1 | 0.6
CC1CCCN(C(=O)c2ccncc2)C1 (stereo unspecified) | 14 | 4 | 1.8% | 5 | 1.5 | -0.3
O=c1[nH]c(C2CCCN(S(=O)(=O)c3ccccc3F)C2)nc2c1nnn2Cc1ccccc1Cl (stereo unspecified) | 8 | -5 | 2.2% | 3 | 6.2 | 4.3
Cc1ccc(SCc2cc(=O)[nH]c(N3CCN(Cc4ccccc4)CC3)n2)cc1 | -7 | -1 | 3.5% | -1 | -2.9 | 1.4

Compound profiles, as listed above.
O=S(=O)(Nc1nc(-c2ccccc2)cs1)c1cc(Cl)ccc1Cl in the list: TRPML1 blocker = 5; Six1-Eya2 inh = -6; PINK1 expr mod = -1.0%; D2 PAM = -3; D2 agonist = 3.9; TRPML1 agonist = -0.6
CCOc1ccccc1Nc1ccc2nonc2c1[N+](=O)[O-] in the list: TRPML1 blocker = -12; Six1-Eya2 inh = 2; PINK1 expr mod = 0.6%; D2 PAM = -3; D2 agonist = 7.8; TRPML1 agonist = 0.8

Additional results.
SMILES | TRPML1 blocker | Six1-Eya2 inh | PINK1 expr mod | D2 PAM | D2 agonist | TRPML1 agonist
COCCn1c(CN2CCC(Cc3ccccc3)CC2)nc2c1c(=O)n(C)c(=O)n2C | -20 | 5 | 1.8% | -7 | 1.7 | -1.0
CSc1nc(N)n(-c2cc(C(F)(F)F)ccn2)n1 | 25 | 4 | -0.9% | -6 | -3.9 | 4.0
c1ccc(Cn2nnnc2C(c2ccncc2)N2CCOCC2)cc1 (stereo unspecified) | -11 | 0 | x | -9 | -3.1 | -0.6
O=P(c1ccccc1)(c1ccccc1)C(O)c1ccccn1 (stereo unspecified) | -4 | -17 | 1.8% | -20 | -5.4 | -0.2
COc1ccc(-n2nc3c(=O)[nH][nH]c3cc2=O)cc1 | -14 | -22 | 0.4% | -6 | -4.4 | -0.2
O=C(NNC(=O)c1ccc2c(=O)n3c(nc2c1)CCC3)c1ccc(Cl)cc1 | -2 | 1 | 0.1% | -2 | -5.2 | 0.1
O=C(c1ccc(S(=O)(=O)N2CCC(c3nc4ccccc4s3)CC2)cc1)N1CCCCC1 | -20 | 4 | 18%[38.3 µM] | -1 | 1.5 | 0.3
O=C(O)c1cc(N=Nc2c(O)ccc3ccccc23)cc(C(=O)O)c1 | 26 | -8 | -1.3% | -14 | -11 | 5.4
Cc1nn(-c2ccccc2)c(C)c1NC(=O)COc1ccc(Br)cc1Cl | -11 | -4 | 1.3% | -11 | -0.8 | 0.0
CCCC(C)c1nnc(NC(=O)COc2ccc3c(c2)OCO3)s1 (stereo unspecified) | 7 | 2 | 0.7% | -6 | -4.2 | 0.8
CC(C)(C)c1n[nH]c(=S)n(N)c1=O | 12 | -13 | 2.7% | 8 | -2.8 | -0.8
COc1ccc(Cc2c(C3CCCCC3)nc3c(C)cc(Br)cn23)c(C)c1 | -12 | 7 | u | -5 | -6.8 | -0.2
O=C1N=C(N2CCOCC2)SC1=Cc1ccco1 | 30 | -2 | 1.2% | 2 | 5.4 | -0.3
COC(=O)CCCCCCCCC(O)CN1CCCCC1 (stereo unspecified) | 22 | 1 | 2.3% | -25 | -1.4 | 0.5
COc1cc(C(=O)OCC(=O)Nc2cccc(S(=O)(=O)N3CCCC3)c2)ccc1OCC(C)C | -10 | -9 | -0.8% | -67 | -2.1 | 2.9
CNc1ncnc2c1ncn2[C@H]1CN(CCc2ccccc2)C[C@@H](CO)O1 | x | 9 | -0.5% | -4 | -4.1 | 0.2
Cc1ccc(-c2cc(C(=O)N3CC(C)OC(C)C3)c3ccccc3n2)o1 (stereo unspecified) | -7 | -5 | -1.2% | 25 | -3.2 | -1.2
O=C(CN1CCN(S(=O)(=O)c2cccc(F)c2)CC1)NCC1(N2CCOCC2)CCCCC1 | -7 | 1 | -0.3% | -1 | -1.7 | 1.2
O=C(CCCN1C(=O)[C@H]2CC=CC[C@H]2C1=O)NCc1nc(-c2ccc(Cl)cc2)no1 | -14 | 1 | 3.7% | -9 | 2.4 | -1.1
COc1ccc(S(=O)(=O)N2CCC(C(=O)Nc3cc(Cl)ccc3N3CCOCC3)CC2)cc1OC | -2 | -18 | 6.0% | 4 | -1.3 | -0.4
COc1ccc(C2(SCC(N)C(=O)O)c3ccccc3-c3ccccc32)cc1 (stereo unspecified) | 9 | -14 | 3.7% | -13 | -3.5 | 0.3
COc1ccc(C(=O)CSc2nnc(C3CCCCC3)n2N)c(OC)c1 | -8 | -2 | 0.8% | -5 | 1.3 | 0.5
CCOC(=O)C1=CCN(S(=O)(=O)c2ccc(C)cc2)[C@H]1c1ccccc1Cl | x | -1 | 1.3% | 1 | 0.8 | -0.4
CCn1nc(C)c(CCN(C)C(=O)Nc2cc(Cl)ccc2C)c1C | 8 | x | -0.5% | x | x | -0.9
OC(CN1CCCC(C(F)(F)F)C1)c1ccccc1 (stereo unspecified) | 0 | -5 | 0.4% | -13 | -5.2 | 0.9

Fetched one by one from above (two):
SMILES | TRPML1 blocker | Six1-Eya2 inh | PINK1 expr mod | D2 PAM | D2 agonist | TRPML1 agonist
CCCn1c2ccccc2c2cnn(CC(=O)NCCc3ccccc3)c(=O)c21 | 9 | x | -0.8% | x | x | 0.0
O=C(NNC(=O)c1ccc2c(=O)n3c(nc2c1)CCC3)c1ccc(Cl)cc1 | -2 | 1 | 0.1% | -2 | -5.2 | 0.1

The main list resumes with the 2 entries that preceded the break.
SMILES | TRPML1 blocker | Six1-Eya2 inh | PINK1 expr mod | D2 PAM | D2 agonist | TRPML1 agonist
CCn1nc(C)c(CCN(C)C(=O)Nc2cc(Cl)ccc2C)c1C | 8 | x | -0.5% | x | x | -0.9
OC(CN1CCCC(C(F)(F)F)C1)c1ccccc1 (stereo unspecified) | 0 | -5 | 0.4% | -13 | -5.2 | 0.9
COc1ccc(NS(=O)(=O)c2cn(C)cn2)cc1Cl | -2 | 20 | 0.8% | -1 | -1.8 | 0.2
Cc1ccc(-n2c(SCc3cn4ccsc4n3)nc3ccccc3c2=O)cc1 | 3 | -17 | 0.1% | -32 | -6.6 | 1.0
Cc1cc(-c2ccc(S(=O)(=O)NCc3ccc(Cl)cc3)cc2)on1 | 3 | 9 | 3.6% | -10 | -1.0 | 0.7
Cc1cc(C(=O)N2CCN(S(=O)(=O)c3ccccc3)CC2)c(C)o1 | 2 | -5 | 2.5% | -26 | -0.1 | -0.6
Cc1nnc(SCC(=O)NC(=O)Nc2ccc3c(c2)OCCO3)n1N | -12 | -2 | -1.6% | -12 | -2.8 | 1.0
O=C(NCCc1ccc(Cl)cc1)c1ccc(CS(=O)(=O)Cc2ccc(F)cc2)o1 | -8 | x | 3.7% | x | x | 1.4
O=C(c1ccco1)N1CCN(C(=O)c2cn(-c3ccccc3)nc2-c2ccccc2)CC1 | 1 | -3 | 3.4% | 2 | -1.0 | -0.7

Screening data deposited in PubChem BioAssay by National Center for Advancing Translational Sciences (NCATS).
